Bioassay records deposited in PubChem BioAssay by ICCB-Longwood Screening Facility, Harvard Medical School.
GIV-Gai inh – inhibitors of GIV peptide binding to Galpha-i3, primary screen, biochemical, fluorescence polarization, FITC-GIV GBA peptide, rat Galphai3 | AID 1224905, 2016 | 210,000 tested, 0.42% active | Guanine nucleotide-binding protein G(i) subunit alpha-3 (Rattus norvegicus), P08753 | 90 min; stronger effect = lower value; scaled: aluminum fluoride 0%, vehicle 100% | percent of control (FP), % (no concentration beside the values);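 active = replicate mean at 85% of control or lower, very high polarization wells dropped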;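 also: wells of about 15 µL received 100 nL stock; the first replicate is given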
Target sequence (P08753 whole entry, looked up): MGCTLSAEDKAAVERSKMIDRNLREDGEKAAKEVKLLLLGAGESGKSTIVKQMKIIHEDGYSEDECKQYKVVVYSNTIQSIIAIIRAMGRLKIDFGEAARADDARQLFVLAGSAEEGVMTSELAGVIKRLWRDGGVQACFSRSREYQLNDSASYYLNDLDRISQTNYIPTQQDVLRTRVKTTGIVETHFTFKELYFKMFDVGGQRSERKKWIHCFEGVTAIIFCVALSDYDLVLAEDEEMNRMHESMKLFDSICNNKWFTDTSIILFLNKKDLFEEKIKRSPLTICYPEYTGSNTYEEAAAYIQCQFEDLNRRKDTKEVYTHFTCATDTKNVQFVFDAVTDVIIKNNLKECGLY
* = called active by the depositor. A portion of the library (hit frequency here may not be typical).

GIV-Gai inh	Structure
113	COC(=O)c1sccc1NC(=O)Cc1nn(C)c(=O)c2ccccc12
102	Cc1nc(-c2cc(S(=O)(=O)NCC3CCCO3)cn2C)sc1C(=O)N1CCCC1 (centres undefined)
112	O=C1C2C3c4ccccc4C(CO)(c4ccccc43)C2C(=O)N1c1cccc([N+](=O)[O-])c1 (centres undefined)
112	CCOC(=O)CSc1nc2c(sc(=S)n2-c2cc(Cl)ccc2OC)c2nc3ccccc3n12
102	COc1ccc(N2C(N)=NC(N)=NC23CCCC3)cc1
99	COc1ccc(NC(=O)c2ccc(-n3nc(N4CCCC4)ccc3=O)cc2)cc1
112	COc1ccc(Nc2nc(Cl)nc(Nc3ccc(OC)cc3OC)n2)c(OC)c1
103	CC(=O)N1CCc2cc(N3CC(C(=O)NCC(C)C)CC3=O)ccc21 (centres undefined)
103	O=C1C2=C(C(c3ccccc3)=NCCN2)C(c2ccccc2Cl)N1c1ccccc1 (centres undefined)
99	CCC(Sc1nc(Nc2cc(OC)cc(OC)c2)c2ccccc2n1)C(=O)NCCCOC (centres undefined)
108	CCOC(=O)C1=NN(c2ccc([N+](=O)[O-])cc2)C2(S1)c1ccccc1C(c1ccc(Cl)cc1)=NN2c1ccccc1 (centres undefined)
100	Cc1cc2c(cc1C)NC1(CCCCCC1)C(=NCc1ccc(F)cc1)N2
108	O=C1/C(=C/c2ccc(-c3cc(Cl)ccc3Cl)o2)C=C(c2ccccc2)N1c1ccc(Nc2ccccc2)cc1
103	O=C(c1ccccc1CN1C(=O)C2CCCN2C(=O)c2ccccc21)N1CCCC1 (centres undefined)
104	Cc1ccc2c(c1)C(C)(c1ccccc1)CC(C)(C)N2C(=O)CN1CCOCC1 (centres undefined)
111	CCCCCOc1ccc(C(=O)CCNC(Cc2c[nH]c3ccccc23)C(=O)O)cc1 (centres undefined)
111	CCOC(=O)C(NC(=O)c1ccc(N2CC3CC(C2)c2cccc(=O)n2C3)c(NC(=O)c2cccnc2)c1)C(=O)OCC (centres undefined)
104	CCC(=O)Nc1cccc(-c2noc(C3CCCN(C(=O)c4ccc(C(C)C)cc4)C3)n2)c1 (centres undefined)
122	CCCOc1ccc(CN2CCCC2c2c(C)noc2C)cc1OC (centres undefined)
103	CC1=NOC(C)(CNS(=O)(=O)c2ccc(F)cc2)C1 (centres undefined)
112	CN(C)c1nc2ncn3c(=O)n(CC(=O)Nc4cccc(Br)c4)nc3c2s1
-8.4*	COc1cc(OC)c(OC)cc1/C=C1\N=C(c2cncc(Br)c2)OC1=O
106	CCC(=O)N1c2ccccc2C2=C(SC(C(=O)OC)=C(C(=O)OC)C23SC(C(=O)OC)=C(C(=O)OC)S3)C1(C)C
95	Cc1csc(-c2cc(S(=O)(=O)Nc3cc(Cl)ccc3C)c(C)s2)n1
104	Cc1ccc(-n2nc(C)c3c(=O)n(CC(=O)NCc4ccc(F)c(Cl)c4)ccc32)cc1
110	O=S(=O)(c1ccc(-c2cnc(C3CCCC3)o2)s1)N1CCCCC1
104	COc1cccc(C2C3=C(NCCN=C3c3ccccc3)C(=O)N2c2ccccc2)c1 (centres undefined)
119	COc1ccccc1NC(=O)CSc1nc2ccc(NC(=O)CSc3ccccn3)cc2s1
101	COc1ccc(/C=c2\sc3n(c2=O)NC2(c4ccccc4)N(C)C(=O)N(C)C2(c2ccccc2)N=3)cc1 (centres undefined)
104	O=C(Cn1cnc2c(sc3ncccc32)c1=O)Nc1ccc(F)c(F)c1
99	Clc1cccc(Nc2nc(NC3CCCC3)nc3c2cnn3-c2ccccc2)c1
109	COCCCNC(=O)CSc1nc(NCC2CCCO2)c2ccccc2n1 (centres undefined)
109	C=CCNC(=O)CCc1c(C)n(C)c2cc(-c3ccccc3C)nn2c1=O
102	O=C1C2C3c4ccccc4C(c4ccccc43)C2C(=O)N1c1ccc(Cl)cc1 (centres undefined)
98	COc1ccc(NC(=O)Nc2nnc(SCC(=O)Nc3cccc(C)c3)s2)cc1
102	COc1ccc(C2c3c(-c4ccccc4)n[nH]c3C(=O)N2c2ccccc2)cc1 (centres undefined)
110	O=C(CN1C(=O)c2ccc3c4c(ccc(c24)C1=O)CC3)OCC(=O)c1ccc([N+](=O)[O-])cc1
100	O=c1c2cn[nH]c2nc(SCc2nc(-c3ccc(Br)cc3)no2)n1-c1ccccc1
105	CC1(C)Cc2ccccc2C(C2=C(O)CCCC2=O)=N1
99	O=C(NCc1cc(F)cc(F)c1)C1CC(=O)N(c2ccc3c(c2)CCN3C(=O)C2CC2)C1 (centres undefined)
106	CCOC(=O)CSc1nn2c(=O)c(C)nnc2s1
109	O=[N+]([O-])c1cccc(C2N(c3ccc(Cl)cc3)CCN2c2ccc(Cl)cc2)c1
106	O=C(c1ccc(F)cc1)N1CCc2c([nH]c3ccccc23)C1
110	O=C(NCCCN1CCN(c2cccc(Cl)c2)CC1)c1csc(-c2ccncc2)n1
111	COc1ccc(C(=O)Nc2cc(C(=O)N3CCc4ccccc4C3)ccc2N2CC3CC(C2)c2cccc(=O)n2C3)cc1 (centres undefined)
107	CCCCCCc1cc2c3c(c(=O)oc2cc1OC/C=C/c1ccccc1)CCCC3
105	CN(Cc1nc2cc(C(=O)N3CCCC3)ccc2n1C)S(=O)(=O)c1cc(F)ccc1F
108	COc1cc(C2C(C#N)=C(N)Oc3n[nH]c(-c4cccs4)c32)cc(OC)c1OC (centres undefined)
100	COc1ccc(NC(=O)CCn2cnc3c(-c4ccc(C)cc4)noc3c2=O)cc1OC
109	O=C(NCc1ccco1)c1ccc2c(=O)n(Cc3ccco3)c(SCc3ccc([N+](=O)[O-])cc3)nc2c1
109	CCC(=O)N1CCCC(C(=O)NC2CC2)C1 (centres undefined)
107	Cc1ccc(Cl)cc1N1CCN(C(=O)C2CCN(c3ncnc4c3oc3ccccc34)CC2)CC1
119	Cc1c(N=Cc2ccc(O)cc2)c(=O)n(-c2ccccc2)n1C
102	Nc1nnc(SCC(=O)Nc2ccc3nc(SCC(=O)Nc4ccccc4)sc3c2)s1
108	O=C(CSc1ccccn1)Nc1ccc2nc(SCC(=O)Nc3ccc(F)cc3)sc2c1
107	COc1ccc(-n2ncc3c(N4CCN(c5ccc([N+](=O)[O-])cc5)CC4)ncnc32)cc1

(list continues)
GIV-Gai inh	Structure
102	Cc1c(Cl)c(C)c(C2=NON3N(C(=O)c4ccc(-c5ccccc5)cc4)c4ccccc4N23)c(C)c1Cl
105	c1ccc(N2CCN(c3ccccc3)C2c2cccc3ccccc23)cc1
117	COc1ccc2cc(C(=O)NCc3ccco3)c(=Nc3ccc(C(=O)O)cc3)oc2c1
114	O=C(O)C1C2CCC3C(OC(=O)C31)C2Cl (centres undefined)
113	Cc1ccccc1NC(=O)c1c(NC(=O)c2ccncc2)sc2c1CCCCC2
118	CCOc1ccc2c(c1)C(C)CC(C)(C)N2C(=O)Nc1ccccc1 (centres undefined)
119	CC1CC(Nc2ccccc2)c2ccccc2N1C(=O)c1cccs1 (centres undefined)
105	COc1ccc(-c2nc3ccccc3[nH]2)cc1
110	CCOC(=O)c1sc(NC(=O)C(C)Sc2nnc(CNC(=O)COc3ccccc3)n2C)c(C(=O)OCC)c1C (centres undefined)
114	CCOc1ccccc1C1Oc2ccc(Cl)cc2C2CC(c3ccc(OC)cc3)=NN21 (centres undefined)
109	CCOC(=O)C(C)NC(=O)N(C)CCc1noc(-c2ccc(C(=O)N3CCCC3)cc2)n1 (centres undefined)
105	C=CCN1C(=O)/C(=C2\SC(=S)N(Cc3ccco3)C2=O)c2cc(Br)ccc21
103	CC(=O)C1=NN(c2cccc(Cl)c2)C2(S1)c1ccccc1C(c1ccc(Cl)cc1)=NN2c1ccccc1 (centres undefined)
103	O=C(NC1CC1)c1nnc(-c2ccc(S(=O)(=O)N3CCCC3)cc2)o1
103	CCc1ccc(C(=O)N2CCN(Cc3nc4cc(C(=O)N5CCCC5)ccc4n3C)CC2)cc1
101	CC(C)Oc1ccc(-c2noc(CCn3nc(-c4ccc(F)cc4)ccc3=O)n2)cc1

Look-ups from the results shown:
Entry for `COc1ccc(NC(=O)c2ccc(-n3nc(N4CCCC4)ccc3=O)cc2)cc1` under GIV-Gai inh: 99
Entry for `CCOC(=O)CSc1nc2c(sc(=S)n2-c2cc(Cl)ccc2OC)c2nc3ccccc3n12` under GIV-Gai inh: 112

Later entries
GIV-Gai inh	Structure
108	CCCCN1C(=O)/C(=C2\SC(=S)N(NC(=O)c3ccccc3C)C2=O)c2ccccc21
103	CC(C)n1c(SCc2ccccc2)nnc1-c1ccc2c(c1)OCCCO2
105	O=C(CSc1nc2ccccc2c(=O)[nH]1)Nc1ccc(F)cc1
100	O=S(=O)(c1cc(F)ccc1F)N1CCc2nc(-c3ccc(F)cc3)ncc2C1
108	O=C(NC1COc2ccccc2O1)c1cc(S(=O)(=O)N2CCOCC2)ccc1Sc1ccc(Br)cc1 (centres undefined)
106	CC(C)c1ccc(C2CC(=O)NC(SCC(=O)Nc3cccc(F)c3)=C2C#N)cc1 (centres undefined)
103	Cc1ccc(-c2cc(NC(=O)Cc3ccsc3)on2)s1
105	C=CCNC(=O)c1ccc(Sc2ccc(NS(=O)(=O)c3cc(C)ccc3C)cc2)nc1
122	CC(C)(C)c1ccc(O)c(NC(=O)c2cn(-c3ccc(S(=O)(=O)N4CCCC4)cc3)cn2)c1
111	COc1cccc(-c2nc(-c3ccccc3)c(-c3cc([N+](=O)[O-])ccc3C)[nH]2)c1
100	Cc1noc(C)c1CC(=O)N1CCN(c2ncnc3c2CCC3)CC1
111	CC1C(O)CC(c2ccc(Cl)cc2)NC1c1ccc(Cl)cc1 (centres undefined)
110	CC1(C)Cc2nc(Cl)c(C#N)cc2CO1
104	CCOc1cc(/C=c2\sc3nc4cc(C)c(C)cc4n3c2=O)ccc1OCc1ccccc1
97	O=C(CCn1c(=O)c2ccccc2n2c(SCC(=O)NC3CCCCC3)nnc12)NC1CCCC1
111	N#C/C(=C\C1CCCCC1)c1nc(-c2ccc(Br)cc2)cs1
106	Cc1ccc(NC(=O)c2ccc(=O)n(Cc3ccc(F)cc3)c2)cc1
100	CCN(CC)S(=O)(=O)c1ccc(NC(=O)N2CCCC(C(=O)Nc3cccc(F)c3)C2)s1 (centres undefined)
112	Cc1ccc(-c2c(C#N)c(SCC(=O)c3ccccc3)nc3c2CCCC3)o1
108	NC(=O)c1ccccc1NC(=O)CSc1nc2ccccc2o1
99	CN(CCc1noc(C(=O)NCc2ccccc2)n1)C(=O)c1ccc(Cl)cc1
106	COc1cccc2cc(-c3csc(Nc4ccc(Oc5ccc6ccccc6c5Cl)c(Cl)c4)n3)c(=O)oc12
105	CCCOc1ccc(C2CC(=O)Nc3c2c(C)nn3-c2ccc3nnc(C)n3n2)cc1OCC (centres undefined)
109	CC(C)(C)c1csc(-c2csc(S(=O)(=O)NCc3ccc(F)c(Cl)c3)c2)n1
107	O=C(CSc1nc2ccccc2c(=O)[nH]1)Nc1ccc2c(c1)OCCO2
107	O=C(Nc1nccs1)C1CCN(Cc2noc(-c3ccc(F)cc3)n2)CC1
111	CC(C)(C)NC(=O)CSc1nc2c(c(-c3cccs3)c1C#N)CCCC2
109	COCCn1c(CCCC(=O)N2CCN(c3ncccn3)CC2)nc2cccnc21
112	COC(=O)C1=NN(c2ccc(Br)cc2)C2(Nc3ccccc3S2)S1 (centres undefined)
99	CC1(C(=O)NCc2ccc(F)cc2)CCCN(C(=O)c2ccc(F)c(F)c2)C1 (centres undefined)
105	OC(CN(C1CCCCC1)C1CCCCC1)Cn1c2ccc(Br)cc2c2cc(Br)ccc21 (centres undefined)
114	CCc1nc(-c2csc(S(=O)(=O)N3CCC(C(=O)NC4CCCC4)CC3)c2)no1
102	O=C1c2ccccc2-c2onc3c(Oc4c(F)c(F)c(F)c(F)c4F)cc(Oc4c(F)c(F)c(F)c(F)c4F)c1c23
106	Cc1ccccc1Cc1c(C)nc2c(C(=O)N3CCN(Cc4ccc5c(c4)OCO5)CC3)cnn2c1C
116	CCn1c(=O)n(CC(=O)Nc2nc3ccccc3s2)c(=O)c2ccccc21
111	CCCN(CCC)CC(O)CN(c1cccc(C)c1)S(=O)(=O)c1ccccc1 (centres undefined)

Filtered by structure, those above with a thiophene ring, fused or not (13)
GIV-Gai inh	Structure
113	COC(=O)c1sccc1NC(=O)Cc1nn(C)c(=O)c2ccccc12
95	Cc1csc(-c2cc(S(=O)(=O)Nc3cc(Cl)ccc3C)c(C)s2)n1
110	O=S(=O)(c1ccc(-c2cnc(C3CCCC3)o2)s1)N1CCCCC1
104	O=C(Cn1cnc2c(sc3ncccc32)c1=O)Nc1ccc(F)c(F)c1
108	COc1cc(C2C(C#N)=C(N)Oc3n[nH]c(-c4cccs4)c32)cc(OC)c1OC (centres undefined)
113	Cc1ccccc1NC(=O)c1c(NC(=O)c2ccncc2)sc2c1CCCCC2
119	CC1CC(Nc2ccccc2)c2ccccc2N1C(=O)c1cccs1 (centres undefined)
110	CCOC(=O)c1sc(NC(=O)C(C)Sc2nnc(CNC(=O)COc3ccccc3)n2C)c(C(=O)OCC)c1C (centres undefined)
103	Cc1ccc(-c2cc(NC(=O)Cc3ccsc3)on2)s1
100	CCN(CC)S(=O)(=O)c1ccc(NC(=O)N2CCCC(C(=O)Nc3cccc(F)c3)C2)s1 (centres undefined)
109	CC(C)(C)c1csc(-c2csc(S(=O)(=O)NCc3ccc(F)c(Cl)c3)c2)n1
111	CC(C)(C)NC(=O)CSc1nc2c(c(-c3cccs3)c1C#N)CCCC2
114	CCc1nc(-c2csc(S(=O)(=O)N3CCC(C(=O)NC4CCCC4)CC3)c2)no1
